# Source: PubChem BioAssay (National Center for Advancing Translational Sciences (NCATS))
# Menin-MLL FL inh – qHTS Assay for Inhibitors Targeting the Menin-MLL Interaction in MLL Related Leukemias: Competition With Fluorescein Labeled MLL-derived Peptide; Fluorescence polarization, fluorescein-MLL peptide displacement from menin; FP activity change, % at 61.4 µM; 290,000 tested, under 10 active; inconclusive = falling polarisation curve, or a change in total fluorescence; inactive = total fluorescence flat and polarisation flat or rising; no compound was filed as active; the % refers to the polarisation; negative = inhibition;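 also: % of control where 0% means no effect; inhibitors lower the polarisation; unlabelled MLL peptide was the positive control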
# Sfp inh – qHTS Assay for Inhibitors of Bacillus subtilis Sfp phosphopantetheinyl transferase (PPTase) | Biochemical Sfp PPTase activity, qHTS | Potency, µM, without a hit: max response, negative = inhibition, actives largely listed as inhibitors | actives 3.5% (n = 310,000) | 4'-phosphopantetheinyl transferase ffp (Bacillus subtilis), Q9F4F7; active = well fitted inhibition curve with a large enough effect; inconclusive = small, poorly fitted or top-dose-only effect, or another doubt; inactive = no such curve, though single readings can be large or run the other way;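 also: the enzyme is Sfp with the accession as filed and its product quenches rhodamine fluorescence; potency is read from the fitted curve at half-maximal effect; 0% = enzyme reaction without inhibitor and -100% = no enzyme wells; top concentration of the series not given in the record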
#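 Buffer: 50 mM Hepes-Na pH 7.6, 10 mM MgCl2, 0.01% Nonidet P-40, 0.01% BSA. Enzyme 15 nM, pre-exposed to compound 15 min; substrates then added and fluorescence change tracked over 30 min.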
# ClpP mod – qHTS Assay for Activators of ClpP; ATP-dependent Clp protease proteolytic subunit (Bacillus subtilis (strain 168)), P80244; purified B. subtilis ClpP, FRET peptide cleavage, 20 min; Potency, µM (highest dose often 57.5 µM), without a hit: at the highest dose activity change, negative = active; actives 1.9% (n = 340,000); AID 651965, 2013; active = well fitted falling curve with a large enough effect; inconclusive = small, poorly fitted or top-dose-only effect; inactive = no such curve, though single readings can be large or run the other way; also: potency is read from the fitted curve at half-maximal effect; the source files actives as falling curves though it sought activators and does not explain the sign; nearly all actives have a fitted effect of over 65% in size; many hits overshoot -100%
# Target sequence (P80244 whole entry, looked up): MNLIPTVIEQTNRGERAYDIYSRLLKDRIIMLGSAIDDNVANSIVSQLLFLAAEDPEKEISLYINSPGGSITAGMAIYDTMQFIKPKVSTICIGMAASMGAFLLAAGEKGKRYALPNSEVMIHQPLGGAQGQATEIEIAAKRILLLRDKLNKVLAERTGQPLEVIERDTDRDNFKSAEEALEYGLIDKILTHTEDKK
#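 FRET quenching reversal measured ClpP activation: 10 microg/mL B. subtilis ClpP at pH 8 with the FRET-FV decapeptide, read at 430 nm after 320 nm excitation. The 20-min minus 0-min signal was scaled between DMSO/no-enzyme wells and ADEP (5.8 microM final).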
# CtBP-E1A inh – qHTS Assay for Inhibitors of the CtBP/E1A Interaction; CtBP / adenovirus E1A interaction (AlphaScreen); AlphaScreen GST-E1A/His-CtBP binding, 1536-well; hits give low values; control for the full effect not named in the record; activity change, % (concentration not given with the values); actives 0.49% (n = 340,000); AID 651724, 2012; in the data active means activity change below about -65%; inconclusive means about -30% to -65%; inactive means above about -30%; also: % is scaled to controls: 0 for no effect and ±100 for the full control effect
#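 In 5 uL wells, 23 nL compound meets equimolar GST-E1A and His-CtBP (5X stock 125 nM each) for 2 h, 37 °C. Beads (5X, 50 ug/mL) then 1 h, 37 °C, dark.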
# TRPV1 PAM – HTS Assay for Compounds that Act as Potentiators of the Vanilloid Receptor 1. Transient receptor potential cation channel subfamily V member 1 (Homo sapiens), Q8NER1. TRPV1-expressing cells, Fluo-8 calcium influx, capsaicin EC20 potentiation; host cell line not named in the record; control for the full effect not named in the record. potentiation, % at 8.33 µM. actives 0.02% (n = 320,000). AID 540277, 2011; active means potentiation above 80%; inconclusive means 30% to 80%; inactive means below 30%; also: 0% is about no effect
# Target sequence (Q8NER1 whole entry, looked up): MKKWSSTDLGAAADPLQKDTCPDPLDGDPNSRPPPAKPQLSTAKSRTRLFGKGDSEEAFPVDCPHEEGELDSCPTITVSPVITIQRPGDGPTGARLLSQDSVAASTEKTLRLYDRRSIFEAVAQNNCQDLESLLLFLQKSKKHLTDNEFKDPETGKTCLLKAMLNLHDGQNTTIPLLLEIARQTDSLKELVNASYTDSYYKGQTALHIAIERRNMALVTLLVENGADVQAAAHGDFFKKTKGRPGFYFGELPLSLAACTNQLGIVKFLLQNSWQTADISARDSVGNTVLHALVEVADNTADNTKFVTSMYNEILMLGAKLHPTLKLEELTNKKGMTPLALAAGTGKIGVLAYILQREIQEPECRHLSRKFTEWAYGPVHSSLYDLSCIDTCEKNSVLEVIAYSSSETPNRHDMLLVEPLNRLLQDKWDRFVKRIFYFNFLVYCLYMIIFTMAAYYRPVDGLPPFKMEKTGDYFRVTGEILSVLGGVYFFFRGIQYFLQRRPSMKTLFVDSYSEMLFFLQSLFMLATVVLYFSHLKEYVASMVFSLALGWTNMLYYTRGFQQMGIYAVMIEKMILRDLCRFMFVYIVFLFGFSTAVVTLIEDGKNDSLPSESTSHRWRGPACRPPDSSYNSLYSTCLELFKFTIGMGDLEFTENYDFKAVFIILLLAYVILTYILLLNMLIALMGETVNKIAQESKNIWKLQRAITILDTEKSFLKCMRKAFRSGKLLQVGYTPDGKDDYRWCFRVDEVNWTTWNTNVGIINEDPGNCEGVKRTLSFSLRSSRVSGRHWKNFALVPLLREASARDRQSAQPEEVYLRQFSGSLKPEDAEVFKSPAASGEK
#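 Fluo-8 calcium influx in TRPV1-expressing cells, kinetic read (ex 480/em 520 nm). Compound added and read 3 min for agonist activity, followed by capsaicin at EC20 final and 2 min further read for enhancement.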
# gsp ag – qHTS for Agonist of gsp, the Etiologic Mutation Responsible for Fibrous Dysplasia/McCune-Albright Syndrome: qHTS | Potency, µM (top dose mostly 76.9 µM), for inactives: at the top dose activation (cAMP increase), most hits filed as activators | actives 0.13% (n = 340,000) | gsp mutant cells, cAMP HTRF, 30 min; control for the full effect not named in the record; active = well fitted activation curve with a large enough effect; inconclusive = small, poorly fitted or top-dose-only effect, or another doubt; inactive = no such curve, though single readings can be large or run the other way; cell line not stated here;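 also: phosphodiesterase inhibitor Ro 20-1724 added with compounds to block cAMP breakdown; potency is read from the fitted curve at half-maximal effect; nearly all actives have a fitted effect of over 60% in size; about a fifth of the inactives were tested at one dose only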
#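 Cells stably selected in G418 were plated at 2000/well, grown 16-24 hr, then given compounds in DMSO with the PDE inhibitor […] (300 uM solution added) for 30 min at 37C; cAMP was read by HTRF.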
# gsp antagonist – qHTS for Antagonists of gsp, the Etiologic Mutation Responsible for Fibrous Dysplasia/McCune-Albright Syndrome: qHTS. gsp-mutant cells, cAMP HTRF, 30 min; control for the full effect not named in the record. Potency, µM (series often up to 76.9 µM), for inactives: top-dose activity change, negative = inhibition, actives largely listed as inhibitors. actives 0.4% (n = 340,000). AID 624288, 2012; active = falling curve of any shape with a large fitted effect; inconclusive = falling curve, mostly with a smaller effect; inactive = flat or rising curve; cell line not stated here;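 also: intracellular cAMP measured with PDE inhibitor Ro 20-1724 present during compound exposure; potency is read from the fitted curve at half-maximal effect; % is scaled to controls: 0 for no effect and ±100 for the full control effect; nearly all actives have a fitted effect of over 65% in size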
#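 HTRF cAMP measurement after 30 min RT detection following 30 min, 37C compound treatment alongside […] (added as 300 uM solution) in G418-selected cells seeded at 2000/well and grown 16–24 h.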
# * = called active by the depositor; ? = inconclusive; nt = no result given; [ ] = another dose, or the depositor's remark. This is a random part of the collection; about 5.3% have a hit in one of these screens.
SMILES,Menin-MLL FL inh,Sfp inh,ClpP mod,CtBP-E1A inh,TRPV1 PAM,gsp ag,gsp antagonist
Cc1nnc(SCC(=O)NC2CCCC2)n1CCc1ccccc1,nt,12.8%,-0.7%,20.6,3.1,-0.3%[15.4 µM],10.7%
COc1cccc(CN2CC(C(=O)NCCc3ccc(C)s3)CCC2=O)c1 (stereo not given),nt,11.4%,0.4%,-0.7,2.6,-15.8%,3.5%
C[C@H](CO)N1C[C@H](C)[C@@H](CN(C)S(=O)(=O)c2cn(C)cn2)OCc2cn(nn2)CCCC1=O,nt,nt,-1.9%,-2.5,nt,-10.2%,nt
O=C1CC[C@@H]2CC3(C[C@@H]4CCN1[C@H]24)Nc1cc(Cl)ccc1NC3=NC1CCCCC1 (stereo not given in full),nt,nt,1.7%,2.2,nt,nt,-13.3%
O=C(CSc1nnc(-c2ccccc2Br)o1)N1CCOCC1,1.5,3.3%,nt,-0.4,-9.1,-2.0%[15.4 µM],-1.8%
COc1cccc(CN2CCNC(=O)C2CC(=O)NCCc2ccccn2)c1 (stereo not given),-13.8,-17.5%,nt,-1.2,6.1,-4.0%,6.6%
COc1ccc(C)cc1NC(=O)NNC(=O)c1ccoc1C,nt,20.9%,1.4%,1.3,4.3,-4.3%[15.4 µM],6.3%
CNc1nc(C)nc(N/N=C/c2ccccc2)n1,-7.1,4.9%,nt,12.8,-0.2,?,0.8%
CCOc1ccc(Br)cc1C1=NN(C(C)=O)C(c2ccc([N+](=O)[O-])s2)O1 (stereo not given),1.8,-10.6%,-2.3%,?,0.1,26.5%,-18.4%
CCC(=O)Nc1ccc(NC(=O)CSc2nnc(-c3ccco3)n2CC)cc1,1.6,18.5%,nt,-10.8,2.4,-0.6%[15.4 µM],1.5%
CC(C)CCC(C)NC(=O)Cc1ccc(S(=O)(=O)N2CCOCC2)s1 (stereo not given),0.2,-4.6%,0.2%,5.6,-1.5,8.8%,4.4%
CCOC(=O)c1c(CC(C)C)csc1N,-3.0,1.7%,-1.4%,5.2,-0.7,10.7%,5.4%
O=[N+]([O-])c1cc(C(F)(F)F)cc([N+](=O)[O-])c1NCc1cccnc1,4.7,0.4%,-3.3%,-1.7,-0.2,8.7%,-25.4%
CN1CCC(OC(=O)c2ccccc2Cl)CC1,-0.7,15.1%,nt,8.1,16.7,6.7%,5.0%
Cc1ccc(OCc2cc(C(=O)NC(C)Cc3cccnc3)no2)cc1C (stereo not given),nt,11.8%,1.8%,-0.7,-9.5,24.2%,-2.0%
CCc1nc(SCC(=O)Nc2cc(C)on2)c2c(=O)n(C)c(=O)n(C)c2n1,3.9,-14.4%,1.3%,2.7,-3.0,34.4%,3.9%
NC(=S)NNc1cc(Cl)cc(Cl)c1,-0.4,14.1µM*,0.5%,0.7,8.6,?,-7.2%
NC(=S)NN=C1CCCCCCCC1,nt,nt,-2.4%,23.4,nt,-2.7%,4.9%
Cc1onc(-c2ccccc2Cl)c1C(=O)Nc1ccc(F)c(F)c1,0.8,3.0%,-4.6%,1.9,12.9,-20.1%,12.5%
CN(C)S(=O)(=O)c1ccc(N2CCCC2)c(C(=O)NC2CCC(O)CC2)c1 (stereo not given),nt,nt,3.5%,8.4,22.6,-0.2%[15.4 µM],10.4%
CCN(CC)CCCNC(=O)CSc1nc(C)cc(C)n1,-4.6,5.3%,nt,nt,-13.2,-24.7%[15.4 µM],6.8%
O=C(Cn1ncc2c(=O)oc3ccccc3c21)N1CCc2ccccc2C1,1.7,20.5%,-0.1%,6.1,?,-20.3%,-6.0%
CC1(/[N+]([O-])=C/c2ccc(F)cc2)CCCCC1=O (stereo not given),-0.3,7.6%,0.1%,nt,6.7,22.3%,0.5%
O=C(COc1ccc2c3c(c(=O)oc2c1)CCC3)NC(Cc1ccc(Cl)cc1)C(=O)O (stereo not given),0.4,7.8%,4.5%,-27.6,8.8,nt,1.3%
CC1Cc2nc(SCC(=O)NCC3CCCO3)n(-c3ccccc3)c(=O)c2S1 (stereo not given),nt,nt,-3.3%,24.1,nt,-79.7%[inhibitor],nt
CCOC(=O)C1CCN(c2c(NCc3ccc(C(=O)NC(C)CC)cc3)c(=O)c2=O)CC1 (stereo not given),-2.7,4.7%,-2.6%,-5.5,-1.5,-36.0%[inhibitor],-1.1%
CCOCCOc1nc2c(c(=O)n(C)c(=O)n2C)n1Cc1ccc(C)cc1,4.8,33.8%[activator],-0.3%,4.4,6.2,?,-2.4%
C[n+]1ccccc1Nc1cc([N+](=O)[O-])ccc1N,1.8,-9.8%,-0.7%,2.9,-0.7,-28.7%,-1.1%
COc1ccc(/C=N/NC(=O)c2ccc(NC(=O)C3CCCCC3)cc2)cc1O,nt,79.4µM*,-8.5%,-23.7,17.1,?,-4.9%
COc1cccc(/C=C/C(=O)OCC(=O)c2c(N)n(C)c(=O)n(C)c2=O)c1,nt,nt,25.1µM*,?,3.6,35.8%,-2.7%
O=C(NCCN1CCOCC1)c1ccc2c(c1)ncn2C1CCCCC1,4.9,9.3%,-0.9%,-0.3,-1.8,-17.0%,-3.6%
CCOC(=O)N1CCN(C(=O)COc2ccc(Cl)cc2)CC1,-0.4,4.7%,-1.0%,12.7,-1.7,-19.1%,1.0%
COc1cccc(CN(Cc2ccccc2F)S(=O)(=O)c2ccc(S(=O)(=O)NCc3ccccc3)cc2)c1,3.0,15.8%,4.2%,-7.1,15.2,-15.4%,?
Cc1ccsc1CN(C)CC(=O)Nc1cccc(S(=O)(=O)N(C)c2ccccc2)c1,nt,nt,-1.6%,-0.6,-15.0,-6.3%,?
COC(=O)Nc1ccc(OCC(=O)N2CCOCC2)cc1,6.3,5.7%,-3.5%,12.7,-0.8,?,-2.0%
COc1cc(C2NC(C(=O)O)CS2)ccc1OCc1ccccc1C#N (stereo not given),2.7,17.8µM*,nt,nt,-1.3,nt,nt
CCS(=O)(=O)N1Cc2ccccc2CC1C(=O)Nc1ccccc1OC (stereo not given),-1.5,-0.8%,-0.8%,11.5,15.9,-8.6%,-6.5%
CCOC(=O)c1nc2c(=O)n(C)c(=O)n(C)c2n(C)c1=O,nt,nt,nt,-24.3,nt,22.3%[15.4 µM],-5.0%
O=C(N/N=C\c1ccc(O)c([N+](=O)[O-])c1)C1COc2ccccc2O1 (stereo not given),-1.2,-3.3%,0.0%,nt,5.3,-40.2%[inhibitor],-12.8%
CCOC(=O)c1sc(C)c(C(N)=O)c1NC1=NCCCCC1,-4.3,-8.3%,170.7%,-1.0,-8.0,-4.6%,5.0%
Cc1ccc(C2/C(=C(/O)c3ccc(Cl)cc3)C(=O)C(=O)N2CC2CCCO2)o1 (stereo not given),-0.7,-17.2%,-1.0%,-2.6,11.4,?,3.5%
Cc1ccc(CNS(=O)(=O)c2ccc(CN3C(=O)c4cccnc4C3=O)cc2)o1,nt,-15.4%,-0.2%,-16.8,12.1,?,-4.0%
O=C(COC(=O)Cc1ccc(S(=O)(=O)N2CCOCC2)s1)NCc1ccccc1,9.3,5.6%,-1.2%,-0.7,-12.4,-20.6%,2.2%
CC(C)(C)NC(=O)NC(=O)COC(=O)C1CC(=O)N(Cc2ccccc2)C1 (stereo not given),3.5,-2.3%,-0.8%,-2.2,0.3,2.3%,-12.8%
CCc1ccc(N2CC(C(=O)N(CC)CC(=O)Nc3c(F)cccc3F)CC2=O)cc1 (stereo not given),nt,nt,0.4%,-0.1,nt,29.6%,nt
CCOc1ccc(S(=O)(=O)Nc2cc(F)ccc2F)c2cccnc12,-2.8,-5.6%,nt,0.3,24.5,4.0%[15.4 µM],-19.8%
COc1ccc(CC(=O)NC(=S)Nc2ccc(S(=O)(=O)NC(C)(C)C)cc2)cc1,-2.0,9.9%,-1.8%,-1.2,-6.1,1.0%,-2.7%
Cc1ccc(C(=O)NCC(=O)OCC(=O)Nc2ccccc2C#N)s1,-1.2,16.2%,-0.6%,1.8,7.7,-25.9%,6.5%
CCCCN1CC(=O)N2[C@H]3c4ccccc4OC[C@@H]3[C@H](c3ccccc3)[C@]2(C)C1=O,nt,nt,2.5%,1.5,-15.2,-46.6%[inhibitor],-4.8%
CC1(C)CC(=NNC(=O)c2n[nH]c3c2CCC3)CC(C)(C)N1,-1.2,14.0%,-1.9%,-26.2,-5.7,?,3.7%
Cc1c(C(=O)NCC(C)C)sc2nc(-c3ccc(F)cc3)cn12,0.2,17.3%,2.5%,4.6,-4.5,16.8%,9.1%
Cc1noc(C)c1C(=O)Nc1ccccn1,2.3,2.1%,-0.3%,1.8,-10.9,19.2%,5.6%
CCCN(Cc1cc2ccccc2[nH]c1=O)C(=O)c1cccc([N+](=O)[O-])c1,2.9,10.7%,nt,4.4,-2.1,-3.7%[15.4 µM],-4.6%
CC(OC(=O)CCNS(=O)(=O)c1ccccc1)C(=O)Nc1ccc(S(=O)(=O)N2CCCCC2)cc1 (stereo not given),nt,nt,-1.1%,7.4,nt,-11.1%,-24.9%
COc1ccccc1-c1cc(-c2cc(Cl)ccc2O)n[nH]1,2.4,10.1%,-7.2%,-1.0,-4.1,7.0%,10.7%
COc1ccc(C(C)=O)cc1COC(=O)CCNS(=O)(=O)c1ccc(C(C)=O)cc1,nt,8.2%,-3.1%,1.2,-18.8,8.7%,?
CCCN1C2CCCC1CC(NC(=O)c1ccccc1OC)C2 (stereo not given),0.2,17.9%,nt,0.0,-1.8,2.8%,-12.3%
Cc1cccc(Nc2nnc(SC/C(O)=C(\C#N)c3nc4ccccc4[nH]3)s2)c1C,16.3,4.3%,-0.6%,-9.2,5.0,24.5%,-35.8%
